miR-21 FLuc = miR-21 reporter, rising signal; AID 2288; 340,000 tested, under 10 active; HeLa miR-21 FLuc reporter, luciferase, 48 h; Potency, µM (series often up to 38.3 µM), without a hit: at the top dose reporter change, positive = more light; active = well fitted rising curve with a large enough effect; inconclusive = small, poorly fitted or top-dose-only effect; inactive = no such curve, though single readings can be large or run the other way;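 also: % of control where 0% means no effect; miR-21 action dims this reporter so a rising signal means less miR-21 action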
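Luminescence from a firefly luciferase reporter carrying a miR-21 binding site downstream, stably expressed under a CMV promoter in HeLa cells that make miR-21 endogenously, reports miRNA modulation after 48 h compound exposure up to approximately 40uM final.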
Rango complex inh = Rango-importin beta binding inhibition; Potency, µM (doses to about 92.2 µM), for inactives: top-dose inhibition of complex formation; hit rate 0.031% among 340,000; Rango CFP/YFP FRET sensor + importin beta, 45 min; AID 540263; Q14974; active = rising FRET ratio curve, often small or poorly fitted; inconclusive = mostly compound fluorescence or quenching in the first reads; inactive = flat curves in all reads;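 also: potency is read from the fitted curve at half-maximal effect; 0% = DMSO wells and 100% = buffer wells lacking importin beta; nearly all actives have a fitted effect of over 15% in size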
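FRET biosensor (snurportin 1 IBB flanked by EYFP and cerulean), 50 nM, with compound 5 min, then 0.125 microM importin beta in PBS, 1 mM DTT, 0.02% Tween-20, 0.1% BSA. CFP/YFP ratio read after 45 min at room temperature; pre-read flags interference.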
GLA inh pH 4.5 = alpha-galactosidase A (human) inhibition, pH 4.5; purified enzyme, 4-MU-alpha-Gal fluorescence, pH 4.5; activity change, negative = inhibition, % at 105 µM; 230,000 tested, under 10 active; AID 1467; inconclusive = small, poorly fitted or top-dose-only inhibition, or a rising curve; inactive = flat fitted curve, though single readings scatter; no compound was filed as active;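 also: 0% = full activity with enzyme and -100% = basal without enzyme; dose as in the result columns while the protocol names 77 µM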
Target sequence (P06280 whole entry, looked up): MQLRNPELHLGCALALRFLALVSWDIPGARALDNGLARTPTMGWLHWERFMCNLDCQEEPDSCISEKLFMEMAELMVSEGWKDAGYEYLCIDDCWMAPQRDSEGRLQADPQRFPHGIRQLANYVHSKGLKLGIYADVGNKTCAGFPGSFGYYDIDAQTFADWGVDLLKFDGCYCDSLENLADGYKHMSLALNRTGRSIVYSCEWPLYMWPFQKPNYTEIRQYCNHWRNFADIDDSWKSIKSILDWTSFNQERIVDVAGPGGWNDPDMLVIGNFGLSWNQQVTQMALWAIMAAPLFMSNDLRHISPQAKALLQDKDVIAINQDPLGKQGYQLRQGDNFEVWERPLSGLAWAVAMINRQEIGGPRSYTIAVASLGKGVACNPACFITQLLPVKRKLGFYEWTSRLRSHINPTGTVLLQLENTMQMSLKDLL
Rango dissoc inh = prevents RanGTP from dissociating the Rango-importin beta complex; O95149+P62826; Biochemical FRET Rango-importin beta, RanGTP-induced dissociation; Potency, µM (series often up to 46.1 µM), inactives show at the top dose activity change, negative = inhibition; hit rate 0.071% among 340,000; active means falling FRET ratio curve, often poorly fitted, with flat reads before Ran was added; inconclusive means other falling curves, or compound fluorescence or quenching; inactive means flat or rising ratio curve;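 also: potency is read from the fitted curve at half-maximal effect; % of control where 0% means no effect; nearly all actives have a fitted effect of over 45% in size; -100% = wells without RanGTP and RCC1; the record marks most hits as doubtful in a second field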
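Compounds preincubate 5 min with complex of recombinant Rango and importin beta in PBS with 1 mM DTT. Ran (0.6 uM) loaded with 2 mM GTP plus 0.2 uM RCC1 starts dissociation; FRET is recorded 45 min later.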
An asterisk follows results filed as active; ? = inconclusive; / = no result given; & = joins results of further samples. Some of the compounds tested; rates above refer to the full screens.

SMILES	miR-21 FLuc	Rango complex inh	GLA inh pH 4.5	Rango dissoc inh
O=C(COc1ccccc1)NCC(=O)N/N=C/C=C/c1ccccc1	-2%	-2.9%	1	1%
N#Cc1nc(COc2ccc(F)cc2)oc1NCCCn1ccnc1	-11%	0.4%	3	8%
C=Cn1cc[n+](CC(=O)C(C)(C)C)c1	2%	2.1%	3	13%
O=C(N1CCCCC1)N1CCN(C(c2ccccc2)c2ccccc2)CC1	11%	0.2%	3	-5%
CCOC(=O)c1cc2sccc2n1CC(=O)N1CCCC1	-3%	1.9%	8	1%
O=C(COC(=O)c1ccc2c(c1)OCCO2)Nc1cc(S(=O)(=O)N2CCOCC2)ccc1Cl	-2%	0.0%	-4	11%
CCOC(=O)c1cc(OC(=O)c2ccccc2Br)n(-c2ccccc2)n1	-2%	?	2	-2%
CC(c1n[nH]c(=S)n1Cc1ccccc1)N(C)C (stereo not given)	0%	-1.1%	0	5%
COc1cc(-c2cc(C(=O)N3CCN(c4ccccn4)CC3)c3ccccc3n2)cc(OC)c1OC	22%	5.0%	-5	-2%
O=C(CCc1nnc(C2CCCCC2)o1)N1CCCCC1CCn1cccn1 (stereo not given)	-11%	1.8%	1	-12%
CCOC(=O)N1CCN(c2ccccc2OC)CC1	-1%	-0.2%	-2	-1%
CCc1nnc(NS(=O)(=O)c2ccc(NC(=S)NC(=O)/C=C/c3ccc(OC)cc3)cc2)s1	-8%	1.6%	6	3%
CCC(Sc1n[nH]c(=O)[nH]c1=O)C(=O)OCc1ccccc1 (stereo not given)	-7%	?	1	-13%
CCc1ccc(NC(=O)C2=CC(c3cccs3)=NS(=O)(=O)N2C)cc1	-1%&-4%	0.7%	/	1%
COc1cc(S(=O)(=O)NCCCn2ccnc2)ccc1Cl	1%	0.3%	/	-6%

Looked up by structure from above (7):
SMILES	miR-21 FLuc	Rango complex inh	GLA inh pH 4.5	Rango dissoc inh
O=C(N1CCCCC1)N1CCN(C(c2ccccc2)c2ccccc2)CC1	11%	0.2%	3	-5%
O=C(COC(=O)c1ccc2c(c1)OCCO2)Nc1cc(S(=O)(=O)N2CCOCC2)ccc1Cl	-2%	0.0%	-4	11%
CCC(Sc1n[nH]c(=O)[nH]c1=O)C(=O)OCc1ccccc1 (stereo not given)	-7%	?	1	-13%
CCc1nnc(NS(=O)(=O)c2ccc(NC(=S)NC(=O)/C=C/c3ccc(OC)cc3)cc2)s1	-8%	1.6%	6	3%
COc1cc(S(=O)(=O)NCCCn2ccnc2)ccc1Cl	1%	0.3%	/	-6%
CCc1ccc(NC(=O)C2=CC(c3cccs3)=NS(=O)(=O)N2C)cc1	-1%&-4%	0.7%	/	1%
C=Cn1cc[n+](CC(=O)C(C)(C)C)c1	2%	2.1%	3	13%

Looked up above:
In Rango dissoc inh, CCOC(=O)c1cc(OC(=O)c2ccccc2Br)n(-c2ccccc2)n1 is entered as -2%
In GLA inh pH 4.5, CCOC(=O)N1CCN(c2ccccc2OC)CC1 is entered as -2
In GLA inh pH 4.5, N#Cc1nc(COc2ccc(F)cc2)oc1NCCCn1ccnc1 is entered as 3

(further entries)
SMILES	miR-21 FLuc	Rango complex inh	GLA inh pH 4.5	Rango dissoc inh
O=C(c1c(O)c2ccccc2oc1=O)C1CCCCC1	-3%	1.0%	-2	-23%
Cc1ccc(O)c(C2=Nc3ccccc3N=C(c3cccs3)C2)c1	16%	1.1%	-11	-23%
O=C(NC1CCCc2ccccc21)c1cccc(S(=O)(=O)N2CCOCC2)c1 (stereo not given)	1%	0.3%	1	24%
CCOC(=O)Cc1nn(CCc2ccccn2)c(=O)c2ccccc12	-4%	0.8%	2	5%
Cc1ccc(CN2CCC(n3nccc3NC(=O)CCCc3ccccc3)CC2)o1	-4%	?	/	2%
CC(C)CN(C(=O)COC(=O)c1cccn1C)c1c(N)n(Cc2ccccc2)c(=O)[nH]c1=O	-3%	?	/	-19%
C/C(Cn1cnc([N+](=O)[O-])n1)=N/NC(=O)COc1c(Cl)cc(Cl)cc1Cl	13%	2.1%	-3	18%
COC(=O)c1cn(N(C)c2ncc(C(F)(F)F)cc2Cl)c(=O)c2ccccc12	-6%	2.0%	-4	9%
COc1cc(NC(=S)NCCc2c[nH]c3ccccc23)c(OC)cc1Cl	5%	0.1%	0	1%
C=CCS(=O)(=O)N1CCCC(Cc2ccccc2C)(C(=O)OCC)C1 (stereo not given)	3%	1.1%	/	0%
CCCN(CCC)c1ncnc2nc[nH]c12	13%	4.7%	-18	18%
CCOC(=O)C1(C(F)(F)F)N=C(C(F)(F)F)Nc2ccccc21 (stereo not given)	-2%	-0.1%	6	-16%
COc1ccc(OC)c(NC(=O)C(=S)NC2CCCCC2)c1	-12%	-0.2%	-2	-8%
CCOc1ccccc1N1CCN(Cc2cccc(OC)c2OC)CC1	-3%	1.0%	-3	0%
Cc1cc(SCC(=O)Nc2cccc(S(N)(=O)=O)c2)c(C)cc1Br	7%	-0.3%	1	-7%
CCCC(C(=O)O)N1C(=O)/C(=C/c2cccn2C)SC1=S (stereo not given)	-2%	?	3	?
CCOc1ccc(N(CC(=O)NCCSCc2ccco2)S(=O)(=O)c2ccc(F)cc2)cc1	-6%	-0.8%	/	13%
Cc1nc(SCC(=O)N2CCCC2=O)nc(C)c1C	/	-0.1%	/	10%
NC(=S)N/N=C/c1cn(CCC(=O)O)nc1-c1cccc(Br)c1	-3%	0.4%	3	-2%
CC1(C)Cc2c(sc(NC(=O)c3ccc(S(=O)(=O)N4CCCCCC4)cc3)c2C(N)=O)C(C)(C)N1	-2%	?	/	-25%
COc1ccc(NC(=O)c2c[nH]n3c(=O)cc(C4CCN(C(=O)OC(C)(C)C)CC4)nc23)cc1Cl	-5%	0.7%	2	-10%
COc1ccc(-n2c(C)cc(/C=N/Nc3nnc(C)n3N)c2C)cc1	4%	0.4%	-11	-12%
O=C(NCCCN1CCN(CCCNC(=O)c2cc([N+](=O)[O-])ccc2Cl)CC1)c1cc([N+](=O)[O-])ccc1Cl	-5%	-4.8%	3	0%
CCN(CC(=O)Nc1c(F)cccc1F)C(=O)CSc1ccccc1	/	?	/	11%
CC(C(=O)Nc1ccccc1-c1ccccc1)N(C)Cc1nc2ccccc2c(=O)[nH]1 (stereo not given)	19%	-0.1%	-5	24%
Cc1ccc(F)c(NC(=O)CCc2ccccc2)c1	-58%	-9.1%	5	8%
O=c1cc(CCl)nc2scc(-c3ccccc3)n12	1%	-1.9%	2	4%
COc1cc(CNc2nc3c(C)cc(C)cc3s2)ccc1O	0%	-0.3%	/	-10%
CCOC(=O)N1CCN(Cc2cc(Cl)c3cccnc3c2O)CC1	23%	-1.7%	-7	7%
C#CCOCCOCCOCCNc1nc(N2CCN(C(=O)[C@H](CCCCN)n3cc([C@@H](N)C(C)CC)nn3)CC2)nc(N2CCN(C(=O)[C@H](CCCCN)n3cc([C@@H](N)CC(C)C)nn3)CC2)n1 (stereo not given in full)	-2%	52µM*	6	2%
CC(=O)Oc1ccccc1C(=O)Nc1ccccc1C(=O)N1CCCC1	-7%	0.9%	/	10%
Nc1ncnc(Nc2c(F)cccc2F)n1	4%	0.1%	-1	6%
CCCCCCOc1cccc(N)c1	-5%	-0.3%	3	9%
CCN(CC)C(=N)/C(C#N)=N/Nc1ccc(C)cc1	-84%	4.1%	-11	13%
Cc1c(C(=O)NNC(=S)NCc2ccc(Cl)cc2)oc2ccccc12	-9%	-1.3%	/	-6%
COc1ccc(CCN2C(=O)NC(NC(C)=O)(C(F)(F)F)C2=O)cc1OC (stereo not given)	-2%	-2.0%	-3	8%
COc1ccc(C2NC(=O)C(C#N)=C(S)N2c2cccc(C)c2)cc1OC (stereo not given)	5%	-0.5%	0	-5%
CC(=O)c1ccc(S(=O)(=O)NCCCC(=O)NCCc2ccccn2)cc1	-5%	-0.1%	8	27%
COc1ccc2nc(C)cc(SCC(NC(C)=O)C(=O)OC(C)C)c2c1 (stereo not given)	-2%	-1.8%	1	-19%
COc1ccc(C2C(C)C(=O)C(C)C(c3ccc(OC)cc3)N2N=O)cc1 (stereo not given)	/	?	/	-5%
CSCCC(NC(=O)c1ccco1)C(=O)NCC1CCCO1 (stereo not given)	/	0.6%	/	-1%
Cc1cccc(S(=O)(=O)c2c(C)cc(C)nc2Cl)c1	-1%	-2.0%	-3	1%
CC(C)Cn1c(CCC(=O)O)ccc1-c1cccs1	-7%	?	-10	?
CC(C)CNC(=S)NC(=O)c1ccc(F)cc1	-54%	11%	-9	14%
Oc1c(C=C2N=c3ccccc3=N2)sc(=S)n1C1CCCC1	-17%	0.4%	10	-4%
CCNC(=S)NNC(=O)c1csc(C)c1	-21%	-0.1%	10	-14%
COc1ccccc1N1CCN(CC(O)COc2c(OC)cccc2OC)CC1 (stereo not given)	-1%	-1.3%	1	21%
CCCc1nc2sc3ccccc3c(=O)c2c(=O)n1Cc1ccco1	-5%	-6.1%	1	-13%
CCC(c1nnc(SCC(=O)NC2CCCCC2)n1Cc1ccccc1)N(C)C (stereo not given)	/	-4.4%	/	-8%
COCCNC(=O)C(c1ccc(C)cc1)N(C(=O)CCC(=O)Nc1ccccn1)C1CCCCC1 (stereo not given)	-1%	4.7%	/	?
COc1ccc(S(=O)(=O)N2CCCCCC2)cc1C(=O)NCc1ccc(C)cc1	/	2.2%	/	-8%
CN(CC(=O)NC1CCCCCC1)S(=O)(=O)c1ccccc1	-32%	-5.3%	-6	-1%
CCC1(c2ccccc2)NC(=O)N(CC(=O)NCc2ccncc2)C1=O (stereo not given)	2%	-1.5%	/	1%
COc1ccc(/C=C2\N=C(c3ccccc3)N(c3ccc(C(=O)O)cc3)C2=O)cc1OC	-21%	?	-9	?
CN(C)c1ccc(/C=C/C=C2/SC(=S)N(c3ccccc3)C2=O)cc1	-21%	-3.5%	-6	1%
COCCCN1C(=O)C(=O)/C(=C(/O)c2ccc(OC(C)C)cc2)C1c1ccc(O)c(OC)c1 (stereo not given)	-2%	0.3%	-4	-12%
Cc1cccc(NC(=O)CN2C(=O)NC(C)(c3ccc4ccccc4c3)C2=O)n1 (stereo not given)	/	2.9%	/	9%
CCOC(=O)c1c(C)[nH]c(C(=O)OC(C)C(=O)Nc2ccccc2OC)c1C (stereo not given)	14%	-1.6%	/	-8%
O=C1CC(c2ccccc2)n2nc(N3C(=O)c4ccccc4C3=O)nc2N1 (stereo not given)	-6%	0.0%	-6	-12%
CC(CNCC1CCCO1)COc1cccc2ccccc12 (stereo not given)	-6%	-2.3%	1	38%

(further entries)
SMILES	miR-21 FLuc	Rango complex inh	GLA inh pH 4.5	Rango dissoc inh
C=C(C)COc1ccc(-c2nc(N)nc(C)c2-c2ccc(OC)cc2)c(O)c1	-14%	?	?	?
O=C(Nc1ccc(N2CCOCC2)c(Cl)c1)c1ccc(Br)o1	-14%	2.7%	0	-23%
COc1ccc(-n2c(N)c(C(=O)NCc3ccco3)c3nc4ccccc4nc32)c(OC)c1	-10%	?	14	?
C#CCOCCOCCOCCNc1nc(N2CCOCC2)nc(N2CCN(C(=O)[C@H](CO)n3cc([C@@H](N)C(C)C)nn3)CC2)n1	/	?	/	-5%
O=C(Nc1ccc(Oc2ccccc2)cc1)C1CC1	-26%	0.5%	-1	8%
CC(=O)c1cccc(NC(=O)COc2ccccc2C(=O)c2cc(C#N)c(=O)n(C3CCCCC3)c2)c1	-16%	5.4%	-3	0%
CC1(C)O[C@@H]2C[C@H]3[C@@H]4C[C@H](F)C5=CC(=O)CC[C@]5(C)[C@H]4[C@@H](O)C[C@]3(C)[C@]2(C(=O)CO)O1	-34%	0.6%	/	-3%
CCc1ccc(N2C(=O)Nc3ccccc3C2(O)C(=O)N2CCN(c3ccccn3)CC2)cc1 (stereo not given)	-10%	4.7%	-4	5%
O=C(CO)N/N=C/c1ccc(Cl)cc1	-3%	-0.7%	-6	-2%
CCOC(=O)c1nnn(-c2nonc2N)c1CN(C)Cc1ccccc1	-3%	-0.8%	-8	-8%
COc1ccccc1C(CNC(=O)C1CC(=O)N(Cc2ccccc2)C1)N1CCCC1 (stereo not given)	/	0.0%	/	-4%
CC(C)Cn1c(-c2ccc(Br)cc2)c[nH]c1=S	29%	0.0%	-17	8%
CC(C)CC(=O)Nc1cccc(NC(=O)CC(C)C)n1	-1%	3.5%	0	3%
